nsP2pro inh: inhibitors of chikungunya virus nsP2 protease; Potency, µM (top dose mostly 24.9 µM), without a hit: at the top dose activity change, negative = inhibition, hits mostly inhibitors; FRET peptide cleavage, nsP2pro, fluorescence 1 h; AID 1964107; actives 1.1% (n = 31,000); Q8JUX6; active means well fitted inhibition curve with a large enough effect; inconclusive means small, poorly fitted or top-dose-only effect; inactive means no such curve, though single readings can be large or run the other way; note: nearly all actives have a fitted effect of over 60% in size; a reference inhibitor and vehicle were the controls
Starred values were filed as active, the others as inactive; i = inactive; ? = inconclusive; & = joins results of further samples; [ ] = another dose, or the depositor's remark. % is set by controls: 0 for no effect and ±100 for the full control effect; potency is the fitted concentration of half-maximal effect.

| Compound | nsP2pro inh |
| --- | --- |
| Cc1noc(C)c1[S+](=O)([O-])N1CCn2c(nn(-c3ccc(C(F)(F)F)cc3)c2=O)C1 | i |
| COc1cccc(CNC(=O)CN2CCCN(Cc3ccccc3)S2(=O)=O)c1 | -16% |
| CCC(CC)NC(=O)[C@@H]1COCC(=O)N1Cc1ccc(OC)cc1OC | -3% |
| O=C(NC1CCCCCC1)C1c2ccccc2C(=O)N1Cc1ccc(F)cc1 (stereo not drawn) | -15% |
| Cc1noc(C)c1-c1ccc2ncnc(NCc3ccc(Br)cc3)c2c1 | -4% |
| Cc1cc2c(s1)c1cnn(Cc3ccccc3F)c(=O)c1n2Cc1ccccc1F | -5% |
| CN(Cc1ccccc1)Cc1cc(CC2(NC3CCCCC3)COC2)no1 | 3%[39.2 µM] |
| CCC/C=C/C=C/C1CC(O)C(O)C(=O)C1CO (stereo not drawn) | ? |
| Cc1ccc(-c2c(C(=O)NCc3ccc(F)cc3)oc(=O)c3ccccc23)cc1 | -18% |
| NCCCC(N)CC(=O)NCC1NC(=O)C(CO)NC(=O)C(N)CNC(=O)C(C2CCN=C(N)N2)NC(=O)C(=CNC(N)=O)NC1=O (stereo not drawn) | -10%[0.199 µM] |
| CC[C@H](C)[C@H](NC(=O)[C@H]([C@@H](C)CC)N(C)C(C)=O)C(=O)N[C@H](C(=O)N[C@@H](CC(C)C)C(=O)[C@@]1(C)CO1)[C@@H](C)O | -12%&-4% |
| O=C(c1ccccc1OCC1CCCN(Cc2nccs2)C1)N1CCCC1 (stereo not drawn) | -9% |
| O=C(C1CCN(c2nc(-c3ccc(Br)cc3)cs2)CC1)N1CCOCC1 | 4% |
| O=C(Cn1c(=O)n(CC2CCCO2)c(=O)c2ccccc21)Nc1cccc(Cl)c1 (stereo not drawn) | -8% |
| O=C(CSc1nc2c(c(=O)[nH]1)CN(Cc1ccc(F)cc1)CC2)Nc1cccc(C(F)(F)F)c1 | ? |
| Cc1ccc(NC(=O)Cn2c(=O)n(Cc3ccc4c(c3)OCO4)c(=O)c3oc4ccccc4c32)cc1C | -14% |
| COC(=O)C1CC2=CC(=O)CCC2(C)C23OC2CC2(C)C(CC[C@]24CCC(=O)O4)C13 (stereo partly drawn) | -9% |
| CC(C)c1nc(Nc2nc3ccccc3o2)nc2c1CCCC2 | 5% |
| CCNC(=O)[C@H]1O[C@@H](n2cnc3c(N)nc(NCCc4ccc(CCC(=O)O)cc4)nc32)[C@H](O)[C@@H]1O | ? |
| CCCCC(=O)NC1(C(F)(F)F)C(=O)Nc2c1c(=O)[nH]c(=O)n2-c1ccc(F)cc1 (stereo not drawn) | -6% |
| CCOC(=O)c1c(S(=O)(=O)N2CCC(C(=O)NCc3ccccc3OC)CC2)c(C)n(C)c1C | -20% |
| C=CCNC(N)=S | -9%&20% |
| Oc1c(Cl)cc(Cl)c2cccnc12 | 12% |
| CCOCCn1ccc2c(OCC(=O)Nc3cc(C)cc(C)c3)cccc2c1=O | -17% |
| CC(c1ccccn1)N(C)Cc1ccc(S(C)(=O)=O)cc1 (stereo not drawn) | ? |
| COC(=O)[C@@]1(c2ccc(C)cc2)C[C@H]1CN1CCC(O)(c2ccccc2)CC1 | -15% |
| O=C(O)CCn1ncc2cc(OC3CCN(C(=O)Oc4ccccc4Cl)CC3)ccc21 | -3% |
| CC(C)C[C@H]1C(=O)N2CCC[C@H]2[C@]2(O)O[C@](NC(=O)[C@@H]3C[C@@H]4c5cccc6[nH]cc(c56)C[C@H]4N(C)C3)(C(C)C)C(=O)N12 | -12% |
| Cc1cnc(-c2ccccc2CO)nc1NCC1CCN(c2cccnc2)CC1 | i |
| c1ccc(CNc2nc(N3CCOc4ccccc43)nc3c2CCCC3)cc1 | 16% |
| O=C(c1cc2ccccc2o1)N1CCC2(CCCN(Cc3ccccc3F)C2)C1 (stereo not drawn) | -4% |
| CCc1nc(NC(=O)Cn2nc3c(cc2=O)CCCC3)sc1C | -8% |
| COc1ccc(C2Nc3cccc(OC)c3C(=O)N2Cc2ccco2)cc1COc1c(C)cc(NC(C)=O)cc1C (stereo not drawn) | i |
| CC(=O)NC(c1cc(Cl)c2ccccc2c1O)C1CC1 (stereo not drawn) | i |
| Cc1nc(CN(C)c2ncnc3cc(-c4ccc5c(c4)OCO5)ccc23)cs1 | i |
| CCC1(C(=O)NC2CCCCC2)CCCCC(=O)N1 (stereo not drawn) | -10% |
| Cc1ccc(C)c(Cn2cnc3ccccc3c2=O)c1 | -15% |
| Cc1ccc2c(c1)C(c1ccccc1)N(C(=O)c1ccc(S(=O)(=O)N3CCCCC3)cc1)CC(=O)N2 (stereo not drawn) | -16% |
| c1nc(N2CCOCC2)c2cc(-c3ccc4c(c3)OCO4)ccc2n1 | i |
| O=C(Nc1ccc(-c2ccncc2)nc1)c1cccs1 | -1% |
| O=C(/C=C\n1cnc(-c2cc(C(F)(F)F)cc(C(F)(F)F)c2)n1)NNc1cnccn1 | 6%&26% |
| CCOC(=O)c1c(C)[nH]c(C)c1S(=O)(=O)N1CCCC(C(=O)Nc2ncccc2C)C1 (stereo not drawn) | -17% |
| CCN1/C(=C/C(C)=O)Sc2ccc(OC(C)=O)cc21 | -3% |
| CC(C)c1nc(-c2ccc(NC(=O)Nc3cccc(C(F)(F)F)c3)c3ccccc23)c2c(N)nccn12 | 91%[activator] |
| O=C(NCc1ccc(Cl)cc1)[C@@H]1Cc2nc[nH]c2CN1Cc1cc2ccccc2o1 | i |
| O=C(NC1CC(=O)N(c2ccccc2)C1)C(c1ccccc1)c1ccccc1 (stereo not drawn) | -17% |
| N[C@@H](Cc1ccc(O[S+](=O)([O-])c2cccc3cccnc23)cc1)C(=O)N1CCN(c2ccccc2)CC1 | 4% |
| CCc1ccc(C2N=C(N)Nc3nc4ccccc4n32)cc1 (stereo not drawn) | 27% |

Rewritten with each value named: part of the list above
O=C(/C=C\n1cnc(-c2cc(C(F)(F)F)cc(C(F)(F)F)c2)n1)NNc1cnccn1
  nsP2pro inh = 6%&26%
CCOC(=O)c1c(C)[nH]c(C)c1S(=O)(=O)N1CCCC(C(=O)Nc2ncccc2C)C1 (stereo not drawn)
  nsP2pro inh = -17%
N[C@@H](Cc1ccc(O[S+](=O)([O-])c2cccc3cccnc23)cc1)C(=O)N1CCN(c2ccccc2)CC1
  nsP2pro inh = 4%

More records follow:
| Compound | nsP2pro inh |
| --- | --- |
| CCN(C(=O)CCC(=O)N1CCC(C)(c2noc(C)n2)CC1)c1ccccc1 | 1% |
| NC(=O)c1ccc(C[C@H](C(=O)O)N2C(=O)c3ccc(C(=O)O)cc3C2=O)cc1 | -14% |
| CN(Cc1ccccc1)c1ccc(C(=O)N2CCC(CN3CCCC3=O)CC2)cn1 | i |
| CCC(Cc1ccccc1)NC(=O)c1oc(=O)c2ccccc2c1-c1ccccc1 (stereo not drawn) | ? |
| Cc1cc2c(s1)c1cnn(Cc3ccccc3Br)c(=O)c1n2C | -3% |
| O=C(NC1(C(F)(F)F)N=C(c2ccccc2)N(C2CCCCC2)C1=O)c1ccc(F)cc1 (stereo not drawn) | -8% |
| CCn1c(=O)c(-c2cc(NC(=O)Nc3ccccc3)c(F)cc2Br)cc2cnc(NC)cc21 | -1% |
| O=NN(CCCl)C(=O)NCCCl | -4% |
| C[C@H]1[C@H](C)CC[C@]2(C(=O)O[C@@H]3O[C@H](CO)[C@@H](O)[C@H](O)[C@H]3O)CC[C@]3(C(=O)O)C(=CCC4[C@@]5(C)CC[C@H](O[C@@H]6O[C@H](CO)[C@@H](O)[C@H](O)[C@H]6O)C(C)(C)C5CC[C@]43C)[C@H]12 (stereo partly drawn) | 57%[activator][5.1 µM] |
| Cc1ccc2c(c1)/C(=C\c1cc(Cl)c(O)c(Cl)c1)C(=O)N2 | i |
| NC(=O)[C@@H](Cc1ccccc1)NC(=O)[C@@H]1C[C@@H](NS(=O)(=O)c2cccs2)CCN1C(=O)CSCC(=O)O | -20% |
| O=[S+]([O-])(c1ccc2c(c1)OCCO2)N1CCN([S+](=O)([O-])c2c(O)cc(F)cc2F)CC1 | i |
| O[C@@H](c1cc(C(F)(F)F)nc2c(C(F)(F)F)cccc12)[C@H]1CCCCN1 | 26% |
| O=C(Cn1c(=O)oc2cc(S(=O)(=O)NCc3ccccc3)ccc21)NCc1ccc(Cl)cc1 | -19% |
| CCOc1ccc(N2CC(NC(=O)c3cc4ccccc4o3)CC2=O)cc1 (stereo not drawn) | -18% |
| Cc1cc(N[S+](=O)([O-])c2ccc(NC(=O)Cc3ccc4c(c3)OCCO4)cc2)no1 | i |
| O=C(COc1ccccc1Br)NCCc1nc2ccccc2[nH]1 | -5% |
| COc1cc(-c2nc3ncccn3c2Nc2ccc(C)cc2C)ccc1O | -3% |
| Cc1ccc2c(c1)N(CC(=O)N1[C@@H]3CC[C@H]1CNC(=O)C3)C(=O)CO2 | 1% |
| C/C=C(/C)C(=O)O[C@H]1[C@H](OC(=O)/C(C)=C\C)[C@@]23C(CC1(C)C)[C@]1(CCC4[C@@]5(C)CC[C@H](O[C@@H]6O[C@H](C(=O)O)[C@@H](O)[C@H](O[C@@H]7O[C@H](CO)[C@H](O)[C@H](O)[C@H]7O[C@@H]7O[C@@H](C)[C@H](O)[C@@H](O)[C@H]7O[C@@H]7OC[C@@H](O)[C@H](O)[C@H]7O)[C@H]6O[C@@H]6O[C@H](CO)[C@H](O)[C@H](O)[C@H]6O)C(C)(C)C5CC[C@@]4(C)[C@]1(C)C[C@H]2O)O[C@H]3O (stereo partly drawn) | 5%[5.1 µM] |
| NCCc1ccc(S(=O)(=O)F)cc1 | -20%&-17%&-20% |
| Cc1ccc(-c2cn3c(n2)sc2cc(C(=O)NC4CCCCCC4)ccc23)c(C)c1 | -7% |
| O=c1cc(N2CCOCC2)oc2c(-c3ccccc3O)nccc12 | i |
| Cc1cc2c(s1)c1cnn(Cc3ccc(Cl)c(F)c3)c(=O)c1n2C | i |
| CN1CC2(CCN(Cc3ccc(-c4ccc(Cl)cc4)o3)C2)OC1=O (stereo not drawn) | 13µM* |
| COc1ccc(Cn2c(CO)cnc2SCc2ccccc2C)cc1 | -8% |
| COCCCNC(=O)Cn1c(=O)n(-c2ccc(C)c(C)c2)c(=O)c2c3c(sc21)CCCCC3 | -20% |
| Cc1ccc(-n2ncc(C(=O)NCCCN3CCc4ccccc4C3)c2C2CCN(C(=O)OC(C)(C)C)CC2)c(C)c1 | -1% |
| COc1ccc(NC(=O)CN(C)S(=O)(=O)c2ccc3c(c2)CCC(=O)N3)c(OC)c1 | -14% |
| COc1ccccc1NC(=O)CCS(=O)(=O)c1ccc2nc(C)sc2c1 | -16% |
| Cc1cc2c(cc1S(=O)(=O)CCC(=O)NC1CCC(C)CC1)OCC(=O)N2 (stereo not drawn) | -18% |
| COc1ccc(-n2nc3c(N4CCC(C(=O)NC5CCCCC5)CC4)nnc(C)c3c2C)cc1 | -25% |
| c1ccc(CN(Cc2ccccc2)Cc2nnc(-c3cc4ccccc4[nH]3)o2)cc1 | i |
| Cc1ccc2c(c1)c(C(=O)N[C@H](c1cnn(C)c1)C1CC(O)C1)nn2C (stereo partly drawn) | i |
| COc1ccccc1C(=O)Nc1cccc(NC(=O)c2cccc(C)c2)c1 | 8% |
| Cc1nc(C)c(C(=O)N2CCC(N3C(=O)C4(CCCC4)C3c3scnc3C)CC2)s1 (stereo not drawn) | i |
| Cc1cc(CN2CCC3(CC2)CC(c2ccccc2)C(=O)N(C2CC2)C3)on1 (stereo not drawn) | -7% |
| C=C(CCC1C(C)(O)CCC2C(C)(C)C(O)CCC12C)C(O)CO (stereo not drawn) | 96%[activator] |
| CCCCc1nc(C)c(CC(=S)N(C)C)c(=O)n1Cc1ccc(-c2ccccc2-c2nn[nH]n2)cc1 | -12% |
| CCOc1ccc(-c2c(C)nn3c(C)c(C(=O)NCc4ccc(C)o4)cnc23)cc1OCC | ? |
| CCCOC1(C(F)(F)F)NC(=O)N(c2cccc(Cl)c2)C1=O (stereo not drawn) | -12% |
| CCN1CCN(c2oc(/C=C/c3ccccc3OC)nc2C#N)CC1 | -8% |
| Cc1ccc(NS(=O)(=O)c2cc3c(cc2N(C)CCN(C)C)NC(=O)CC3)cc1C | 1% |
| CC(C)Cn1c(=O)n(CC(C)N2CCCC2)c2cc(C(=O)O)cnc21 (stereo not drawn) | i |
| CC1OC(O[C@H]2[C@@H](O)C[C@@]3(C)C([C@H](O)C[C@]4(C)C3CC=C3C5CC(C)(C)CC[C@]5(C(=O)OC5OC(CO)C(O)C(O)C5OC5OCC(OC6OCC(OC7OCC(O)C(O)C7O)C(O)C6O)C(OC6OCC(O)(CO)C6O)C5O)CC[C@]34C)[C@]2(C)CO)C(O)C(O)C1O (stereo partly drawn) | -6%[5.1 µM] |
| CCOC(=O)[C@@H]1[C@H]2c3ccccc3N(CCOC)C(=O)[C@H]2N(C(=O)c2ccccc2)[C@@H]1c1ccccc1 | i |
| O=C(O)c1ccc(NC(=O)[C@H](CC2CCCC2)n2cnc(C(F)(F)F)c2)nc1 | -5% |
| O=S(=O)(N[C@H]1[C@H](O)[C@H](O)C[C@@H]1c1cncnc1)c1ccc(Cl)cc1 | i |
| C=CCn1nc(C)c(CN2CC[C@H](N3CCN(C)CC3)[C@H](CCC(=O)O)C2)c1C | -4% |
| C=C1C(O)C(O)C2(CC3C(C)=CCC4C(C)(C(=O)O)CCCC34C)OC2C1O (stereo not drawn) | ? |
| Cc1onc(-c2c(F)cccc2Cl)c1C(=O)N[C@@H]1C(=O)N2[C@@H]1SC(C)(C)[C@H]2C(=O)O | -4% |
| O=C1c2ccccc2C(=O)N1c1cccc2cnccc12 | -1% |
| NS(=O)(=O)c1ccc(Cc2c(-c3cccc(-c4ccccc4)c3)nn(-c3nc(C(=O)O)cs3)c2C2CC2)cc1 | i |
| COC(=O)CSc1ncc2c(n1)-c1ccccc1N(Cc1cccc(F)c1)S2(=O)=O | -15% |
| Cc1ccc(CNC(=O)c2cc3ccc4cccnc4c3[nH]2)cc1 | 8% |
| COC(=O)c1ccc(Cn2c(SCc3ccccc3F)nc3ccncc32)cc1 | 16% |
| Cc1nc(SCC(=O)N2CCN(c3ccccc3)CC2)[nH]c(=O)c1C | -14% |

Some of the compounds tested, so the mix of outcomes need not match the whole.
